Compound activity (PubChem BioAssay)
AID504770: E. coli YBA685 growth inhibition, screen for V. cholerae RctB inhibitors. E. coli YBA685 rctB-dependent plasmid, OD600 growth, 3 h; hits give low values. AID 504770. hit rate 0.27% among 130,000. z-score (concentration not given with the values);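 active means z-score under -2 on both plates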;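 further: wells of about 30 µL received 100 nL stock; score is relative to mean and SD of the test wells; the first replicate is given; strong numbers were not always called active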
Ba CapD inh: blocks the Bacillus anthracis CapD enzyme; purified CapD enzyme, fluorescence intensity read-out; hits give low values; some hits fall short of the stated cut; z-score (no concentration beside the values); hit rate 0.23% among 140,000; AID 492967;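 active means z-score under -4 in either of two replicates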;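 further: stock transfer was 100 nL into about 40 µL; score is relative to mean and spread of the plate; one replicate is shown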
Starred values were filed as active, the others as inactive; . = no result given; & = joins results of further samples.

cpd	Compound	Ba CapD inh	AID504770
1	CC(NC(=O)OCc1ccc(-c2ccccc2)cc1)c1cccc2c1OCCO2 (configuration not stated)	-0.23	.
2	O=C(NCc1cccnc1)c1cccc2c1C(=O)N(Cc1cccnc1)C2	-0.27	0.05
3	COc1ccc(CN(C)C(=O)[C@H](Cc2ccccc2)NC(=O)c2ccco2)c(OC)c1	.	-1
4	O=c1[nH]c2ccccc2nc1Cc1ccccc1	4.8	1.1
5	CN(C)CC/C=C1/c2ccccc2Sc2ccc(Cl)cc21	118	.
6	Nc1ccc(S(=O)(=O)NCC(F)(F)F)cc1	.	1.8
7	COc1ccc(-c2cc(C(F)(F)F)n3nc(C(=O)NCc4ccco4)c(Cl)c3n2)cc1OC	0.16	.
8	CCN1CCN(C(=O)C(C)NS(=O)(=O)c2ccc(OC)c(C)c2)CC1 (configuration not stated)	0.27	-0.25
9	COC(=O)c1cc2c(s1)CN(C1CCCc3ccccc31)C2 (configuration not stated)	0.26	-0.75
10	Brc1ccc(-c2cn3ccccc3n2)cc1	17	-0.45
11	O=C1Nc2cc(C(F)(F)F)ccc2N2CCCCC12 (configuration not stated)	-0.32	-0.6
12	C=C(C)C1CC=C(C)/C(=N/NC(=O)c2ccncc2)C1 (configuration not stated)	.	2.2
13	Cc1nc2ccc(Nc3nc4cc(Cl)ccc4o3)cc2s1	.	1.9
14	Cc1cccc(CNS(=O)(=O)c2ccc(Oc3cccc(Cl)c3C#N)cc2)c1C	-0.59	.
15	N#Cc1cnc(Sc2nnc(-c3ccncc3)n2-c2ccccc2)nc1N	0.78	1.1
16	Cc1c(C#N)sc(C#N)c1C	0.04	-0.45
17	CC(=O)Nc1ncc(Cc2ccccc2F)s1	-0.18	-0.35
18	NC(=O)COC(=O)CCc1nc2ccccc2c(=O)[nH]1	.	1.2
19	CCCC(=O)Nn1c(=O)[nH]c2ccccc2c1=O	13	-1
20	CN=C(Nc1ccc(C(=O)NC)cc1)c1ccccc1	.	-0.15

Profiles from above. Screens in order: Ba CapD inh	AID504770
Profile of O=C1Nc2cc(C(F)(F)F)ccc2N2CCCCC12 (configuration not stated) = -0.32	-0.6
Profile of Cc1cccc(CNS(=O)(=O)c2ccc(Oc3cccc(Cl)c3C#N)cc2)c1C = -0.59	.
Profile of Cc1c(C#N)sc(C#N)c1C = 0.04	-0.45
Profile of O=c1[nH]c2ccccc2nc1Cc1ccccc1 = 4.8	1.1
Profile of N#Cc1cnc(Sc2nnc(-c3ccncc3)n2-c2ccccc2)nc1N = 0.78	1.1

Next part.
cpd	Compound	Ba CapD inh	AID504770
21	O=C(Cc1cccc2ccccc12)NCc1csc(-c2cccs2)n1	5.7	0.5
22	CC(C)(C)c1cc(C(=O)Oc2cccc(C(F)(F)F)c2)n(Cc2ccccc2)n1	9.5	0.6
23	CCCCn1c(N)c(N(CCOC)C(=O)CN2CCCc3cc(C)ccc32)c(=O)[nH]c1=O	.	-0.95
24	CCN(CC)c1ccc(C2C3=C(CC(C)(C)CC3=O)Nc3ccc4ccccc4c32)cc1 (configuration not stated)	1.3	.
25	COc1cccc2c1c(NC(=O)CCC(=O)O)nn2C	1	0
26	N#C/C(C(=O)Nc1ccccc1)=C(/Nc1ccccc1)SCc1ccccc1Cl	-0.16	.
27	NC(=O)C1CCN(c2csc3ccccc3c2=O)CC1	-2.5	-0.2
28	Cc1cc(C(=O)OC(C)C(=O)Nc2ccc(Cl)cc2Cl)c(C)o1 (configuration not stated)	0.05	0.45
29	COc1ccc(C2(O)CN(c3ccc(Cl)cc3)C3=[N+]2CCCS3)c(F)c1 (configuration not stated)	0.26	.
30	CC1(C)CC(=O)c2sc(Nc3nc4c(F)cccc4s3)nc2C1	-0.97	1.9
31	CC(=O)N1N=C(C)CC1C1C(C)C=C(C)CC1C (configuration not stated)	.	0.05
32	CC(C)CCOc1ccc(CN)cc1	0.94	-0.1
33	O=C(O)CCc1ccc(-c2cccs2)n1Cc1ccco1	2.2	0.3
34	O=c1cc(CSc2nnc(-c3ccc4c(c3)OCO4)o2)nc2scc(-c3ccccc3)n12	.	-0.6
35	COc1ccc(P(=O)(CO)c2ccc(OC)cc2)cc1	-0.32	-0.55
36	COc1cc(/C=C/c2nc3cc(Cl)ccc3c(=O)n2-c2ccc(NC(C)=O)cc2)cc(OC)c1OC	0.05	.
37	Cc1nnc(Nc2nc(N3CCOCC3)nc(N3CCOCC3)n2)s1	-0.43	.
38	N#Cc1c(Cl)cccc1Oc1ccc(S(=O)(=O)NCc2cccs2)cc1	-0.53	.
39	CC1C(C#N)=C(SCC(=O)c2ccc(Cl)cc2)NC2=C1C(=O)CC(C)(C)C2 (configuration not stated)	.	-1.1
40	CCOC(=O)c1sc(NC(=O)C(C)Sc2nnc(CNC(=O)c3cccc(F)c3)n2C)c(C(=O)OCC)c1C (configuration not stated)	-0.52	.

The closing 3 entries of the section before are carried over, then new ones follow:
cpd	Compound	Ba CapD inh	AID504770
38	N#Cc1c(Cl)cccc1Oc1ccc(S(=O)(=O)NCc2cccs2)cc1	-0.53	.
39	CC1C(C#N)=C(SCC(=O)c2ccc(Cl)cc2)NC2=C1C(=O)CC(C)(C)C2 (configuration not stated)	.	-1.1
40	CCOC(=O)c1sc(NC(=O)C(C)Sc2nnc(CNC(=O)c3cccc(F)c3)n2C)c(C(=O)OCC)c1C (configuration not stated)	-0.52	.
41	CN(C)CCSc1nc2ccccc2s1	-0.32	-0.25
42	CCNC(=O)Nc1cc(S(C)(=O)=O)ccc1N1CCN(C)CC1	0.42	.
43	CCCC1CCc2c(sc(NC(=O)OC)c2C#N)C1 (configuration not stated)	0.35	0.05
44	O=c1oc(=O)c2nc3c(=O)oc(=O)c3cc12	.	0.25
45	Cn1c(-[n+]2ccccc2)c(/C=N/NC(N)=S)sc1=O	-3	0.4
46	CS(=O)(=O)Cc1cccc(C(=O)Nc2sccc2C#N)c1	.	0.4
47	COC(=O)C(=C/C=C/c1cccs1)C(=O)OC	-3.2	1.6
48	Cc1cc(S(=O)(=O)NC2CCCCC2)ccc1OCC(=O)Nc1ccc2c(c1)OCO2	0.21	-0.15
49	COc1ccccc1N1CCN(C(=O)C(CC(C)C)NC(=O)C2CCC(C)CC2)CC1 (configuration not stated)	-0.62	-0.85
50	Clc1ccccc1CSc1nnc(-c2cccs2)o1	-0.65	1.2
51	O=C(Nc1cccs1)Nc1cc(C(F)(F)F)ccc1N1CCCC1	-0.75	1.4
52	COc1ccc(Cl)cc1NC(=O)c1cc(S(=O)(=O)N2CCN(c3ccccc3)CC2)ccc1F	-0.4	.
53	O=S(=O)(Nc1ccc(I)cc1)N1CCCCC1	.	-0.6
54	CCOc1ccc(N2C(=O)/C(=C/c3ccccc3)N(C)C2=S)cc1	-0.76	-0.3
55	O=C(Cn1nc(-c2ccccc2)ccc1=O)NCc1ccc2c(c1)OCO2	0.55	0.1
56	O=C1CCC(C(=O)Nc2cc(F)cc(F)c2)=NN1	-1.4	-1.6
57	CN1CCSC1=Nc1ccc(OC(F)F)cc1	.	-0.6
58	Clc1ccc(N2CCN(C3=Cc4ccccc4C3)CC2)cc1	0.44	0.3
59	O=S(=O)(c1ccc(Br)cc1)c1ccc(Br)cc1	-1.2	0.1
60	CCn1c2ccccc2c2cc(CN(CCOC(=O)N3CCN(C(=O)c4ccc(OC)c(F)c4)CC3)C(=O)OC(C)(C)C)ccc21	5.8	.
61	CCCCN(CC)S(=O)(=O)c1ccc2[nH]c(=O)cc(C(=O)NCCN3CCN(c4ccccc4F)CC3)c2c1	0.72	-0.4
62	CCOc1ccc(-c2[nH]nc3c2C(c2ccc(O)cc2)C(C#N)=C(N)O3)c(OCC)c1 (configuration not stated)	-0.15	.
63	O=C(CN(C(=O)C1CSC(=O)C1)c1ccccc1F)NC1CCCC1 (configuration not stated)	.	0.6
64	Cc1ccc(C(=O)c2cncc(Br)c2)cc1	-0.15	0.25
65	CCOC(=O)C1=C(CNCc2ccccc2Cl)NC(=O)NC1c1ccc2c(c1)OCO2 (configuration not stated)	-1.3	2.5
66	Cc1ccc(C(=O)NC2CCCCCC2)cc1N1CCCC1=O	0.6	0.6
67	O=C(Nc1ccc(Cl)c(Cl)c1)n1ccc(C(F)(F)F)n1	1.1	1.5
68	Cc1oc(-n2c(C)cc(/C=C(\C#N)c3ccc4c(c3)OCO4)c2C)c(C#N)c1C	.	0.7
69	CSc1ccc(Cl)c(C(=O)OCC(=O)c2ccccc2)c1	1.1	-0.05
70	COc1ccccc1/C=C/C(=O)Nc1nc2ccccc2s1	14	1.6
71	CCN(CC)c1ccc(-c2n[nH]c(=S)n2-c2ccccc2)cc1	.	2.2
72	Cc1ccc(C)c2[nH]c(=O)c(CCNS(C)(=O)=O)cc12	5	-0.75
73	O=C(O)c1ccc(O)c(SCN2CCCCC2)c1	0.14	0.4
74	CN1C(=O)/C(=C\c2ccc(-c3ccccc3C(=O)O)o2)C(=O)N(c2ccccc2)C1=S	0.065	-1.9
75	CN(C1CCCC1)C1CCN(C(=O)Nc2ccc(Cl)cc2)CC1	-0.7	1.1
76	NC(=O)CSc1nc(N)cc(N)n1	1.8	1.3
77	COC(=O)C1=C(C)Oc2oc(C)cc(=O)c2C1c1cccnc1 (configuration not stated)	-0.15	-0.8
78	CCCCCCCCOc1ccc(NC(=O)/C(=C/c2ccc3c(c2)OCO3)NC(=O)c2ccccc2Br)cc1	1.1	.
79	Cc1ccc(-n2ccnc2SCC(=O)c2ccc[nH]2)c(C)c1	.	-0.05
80	COC(=O)Cc1nc(Nc2ccccc2OC)c2c(C)c(C)sc2n1	-0.7	.
81	Cc1nc2ccncc2cc1C(=O)O	-0.2	.
82	O=C(c1cccc(F)c1)N1CCN(c2ccc3nncn3n2)CC1	0.09	-0.4
83	CCCNC(C)C(=O)Nc1ccccc1C (configuration not stated)	0.095&-1.2	0.9
84	Cc1nc2ccncc2cc1-c1ccnc(-c2ccccn2)n1	0.03	.
85	O=C1CCCC2/C(=N/O)CCCC12 (configuration not stated)	-0.035	-0.15
86	CC(C)(C)C(=O)N1CCN(C(c2ccccc2)c2ccccc2)CC1	0.81	1.9
87	Cc1cc(C(=O)N2CCN(c3ccccc3)CC2)c(C)o1	.	-0.7
88	COc1ccc2c(CNCCc3ccccc3Cl)c(C(=O)O)[nH]c2c1	13	-0.4
89	O=C(CSc1ncnc2sccc12)c1ccc(S(=O)(=O)N2CCCC2)cc1	.	1.1
90	CN(C)c1ccc(CNC(=O)C(Cc2ccccc2)n2cccc2)cc1 (configuration not stated)	0.14	-0.55
91	CC1CCc2nc(SC3CC(=O)N(c4ccccc4)C3=O)c(C#N)cc2C1 (configuration not stated)	-0.18	.
92	NS(=O)(=O)c1ccc(NC(=S)NC(=O)c2cccnc2)cc1	.	0.4
93	CS(=O)(=O)N1CCCc2cc(Br)ccc21	0.33	0.35
94	O/N=C1/CCCc2nn(-c3ccccc3)nc21	-0.56	0.15
95	CCOP(=O)(c1ccccc1)c1nc(-c2ccc(Cl)cc2)oc1NC (configuration not stated)	100	-0.1
96	CCN(CC)c1ncnc2c1c(-c1ccccc1)cn2-c1ccc(OC)cc1	3.7	.
97	O=C(Nn1nnnc1Nc1ccccc1)C12CC3CC(CC(C3)C1)C2	-0.54	-0.35
98	FC(F)(F)COc1ccc(OCC(F)(F)F)c(-c2ncn[nH]2)c1	-0.23	-0.7
99	COc1cccc(CNC(C)c2ccccc2)c1OCc1ccccc1F (configuration not stated)	0.58	-0.05
100	Cc1cc(C)c2nc(NC3=NC(c4ccccc4)CC(=O)N3)nc(C)c2c1 (configuration not stated)	3.4	-1

(listing goes on)
cpd	Compound	Ba CapD inh	AID504770
101	O=C1CCc2cc(C(=O)CSc3ccccc3)ccc2N1	1.3	-0.3
102	Cc1cc(OC(=O)c2ccno2)cc(C)c1Cl	-2.2	-2.4
103	COc1cccc(NC(=O)c2cc(-c3cccs3)nc3ccccc23)c1	0.68	.
104	Cc1cc(C)nc(Nc2nc3ccccc3s2)n1	.	-0.1
105	CC(C)(C)c1ccc(Oc2ccc(NC(=O)Nc3cccs3)cn2)cc1	0.13	-1.2
106	COc1cc2c(cc1OC)/C(=C\C#N)NCC2	-1.3	0.7
107	O=C(CCc1ccccc1)NN1C(=O)c2ccccc2C1=O	.	-0.8
108	FC(F)(F)c1ccccc1N=CNc1ccccc1C(F)(F)F	-0.075	.
109	COc1cc(OC)nc(C(Sc2ccc(N)cc2)c2ccccc2)n1 (configuration not stated)	-0.7	.
110	CCC(CO)NCC(O)Cn1c2ccc(Br)cc2c2cc(Br)ccc21 (configuration not stated)	-0.82	.
111	OC(CN1CCN(Cc2c(F)cccc2Cl)CC1)Cn1ccc2ccccc21 (configuration not stated)	-0.18	-0.55
112	O=C(NCC(c1ccco1)N1CCCC1)c1ccc(CSc2ncn[nH]2)cc1 (configuration not stated)	.	0.9
113	Cc1ccc(S(=O)(=O)N(C)Cc2ccccc2)cc1C(=O)O	-0.4	-0.45
114	O=C(O)c1ccc(-c2ccc(C(=O)O)c(C(=O)O)c2)cc1C(=O)O	-2.5	0.1
115	O=C(Nc1nccs1)c1c(O)c2ccccc2[nH]c1=O	-0.66	0.85
116	O=C(Nc1nc(-c2cccnc2)cs1)c1ccc(S(=O)(=O)N2CCc3ccccc32)cc1	-0.42	.
117	O=C1CC(c2ccccc2)=Nc2ncccc2N1	0.18	0.2
118	O=C(NCC1CCCO1)c1c(O)nc2sccn2c1=O (configuration not stated)	.	-0.85
119	COC(=O)c1ccc(Oc2nc(C)cc(C)n2)cc1	-0.29	.
